Screens: PubChem BioAssay, National Center for Advancing Translational Sciences (NCATS)
Vaccinia mCherry: qHTS for Stage-Specific Inhibitors of Vaccinia Orthopoxvirus: mCherry Reporter Primary qHTS; Potency, µM (highest dose often 36.5 µM), inactives show at the highest dose activity change, negative = inhibition, most hits filed as inhibitors; Vaccinia virus mCherry reporter infection, fluorescence; about a quarter of the inactives have no number; 310,000 tested, 0.63% active; active = well fitted inhibition curve with a large enough effect; inconclusive = small, poorly fitted or top-dose-only effect; inactive = no such curve, though single readings can be large or run the other way; tested in A549 cells; further: nearly all actives have a fitted effect of over 35% in size; inactives centre near -10
Vaccinia Venus: qHTS for Stage-Specific Inhibitors of Vaccinia Orthopoxvirus: Venus Reporter Primary qHTS; Vaccinia virus Venus reporter expression, fluorescence; Potency, µM (series often up to 36.5 µM), without a hit: at the highest dose activity change, negative = inhibition, most hits filed as inhibitors; 330,000 tested, 0.46% active; AID 720580, 2013; active means well fitted inhibition curve with a large enough effect; inconclusive means small, poorly fitted or top-dose-only effect; inactive means no such curve, though single readings can be large or run the other way; tested in A549 cells; further: nearly all actives have a fitted effect of over 30% in size; inactives centre near -10
* hit, by the source's call; i = inactive; ? = inconclusive; nt = not tested or not shown; & = joins results of further samples; [ ] = dose if it differs, or a comment. On the % scale 0 is the no-effect control and ±100 the full control effect; potency means the concentration at half of the fitted maximal effect.

Sequence of screens: Vaccinia mCherry	Vaccinia Venus
O=C(c1ccccc1)c1ccc(-n2cnnc2)c([N+](=O)[O-])c1
  i	-8.5%
O=C(O)c1cccc(-n2c(-c3cnccn3)n[nH]c2=S)c1
  i	-19.8%
O=C(COC(=O)c1ccccc1Nc1cccc(C(F)(F)F)c1)NCc1ccco1
  -17.6%	-5.4%
O=C1OCC/C1=C\c1ccc2c(c1)OCO2
  -11.2%	-23.4%
Cc1ccc(NC(=O)Cn2c(=O)n(CCCCC(=O)NCCc3ccccc3)c(=O)c3ccccc32)cc1
  -14.1%	-12.7%
CC(=O)NC(CCS(C)(=O)=O)C(=O)Nc1ccccc1C (centres undefined)
  -2.9%	-3.1%
Cc1ccc(-c2nc(-c3ccncc3)no2)cc1
  i	-9.2%
COc1ccc(Cl)cc1NC(=O)c1oc2ccc(S(=O)(=O)N3CCCCC3)cc2c1C
  -17.2%	-7.4%
O=C1c2ccccc2NC(c2ccccc2O)N1c1ccc(F)cc1 (centres undefined)
  -16.2%	-15.4%
Cc1nc(SCC(=O)NCC2CCCO2)c2c(C)c(C)sc2n1 (centres undefined)
  i	-13.6%
COc1ccc(N(CCC#N)C(=O)/C(C#N)=C/c2cccs2)cc1
  -11.2%	-7.5%
CN(CC(=O)Nc1ccc(Cl)cc1)C(=O)c1ccc(S(=O)(=O)Nc2ccccc2)cc1
  -16.5%	-16.4%
Cn1ccc2c(/C=C/c3ccc(F)cc3)cc3c(c21)C1CCC3O1 (centres undefined)
  9.9%	-11.1%
Cc1oc(-c2ccccc2NC(=O)c2cccnc2)nc1CNC(=O)c1ccc(N(C)C)cc1
  -8.0%	-1.7%
CCOC(=O)CC(NC(=O)Cn1nnc(-c2ccccc2C)n1)c1ccc(OC)cc1 (centres undefined)
  2.2%	1.8%
COc1cc(C(=O)Nc2ccc(C(=O)c3ccncc3)cc2)cc(OC)c1OC
  15.8%	-12.9%
Cc1cc(NCc2ccccn2)n2ncc(-c3ccc(Cl)cc3)c2n1
  -23.5%	-21.0%
CC1(C)CC2CC(C)(CN2C(=O)CN2C(=O)c3ccccc3C2=O)C1 (centres undefined)
  -6.3%	-5.8%
COc1ccc(N2CCN(C(=O)c3cn(C4CCCCC4)c(=O)c4c3c3ccccc3n4C)CC2)cc1
  -26.6%	-14.2%
O=C(Cc1cccc2ccccc12)NNC(=O)Nc1ccc(Cl)cc1
  i[7.34 µM]	-3.7%[7.34 µM]
CC(C)(Oc1ccc(Cl)cc1)C(=O)Nc1ccc2oc(-c3ccncc3)nc2c1
  nt	-26.4%
Cc1ccc(N2C(=O)N(CC(=O)NC(c3ccccc3)c3ccccc3)C(=O)C2C)cc1 (centres undefined)
  nt	2.5%
CCCN1CCC(=NNc2ccc(S(=O)(=O)N3CCOCC3)cc2[N+](=O)[O-])CC1
  ?	-25.8%
COc1cccc(COC(=O)CCNC(=O)c2ccc(Cl)cc2)c1OC
  i	-18.9%
Cc1onc(NC(=O)c2ccc(Cl)cc2Cl)c1Br
  i	-17.7%
OCCc1ccc(NCCc2cccs2)cc1
  11.9%	4.9%
O=C(c1ccc2c(c1)N(Cc1cccc(Cl)c1)C(=O)c1ccccc1S2)N1CCOCC1
  -9.6%	-10.6%
CCOC(=O)c1[nH]c(C)c(C(=O)N2CCN(C(=O)OCC)CC2)c1CC
  nt	?
COc1ccc(OC)c(/C=C(\C)C(=O)c2c(C)cc(C)[nH]c2=O)c1
  -18.9%	-12.1%
NC(=O)CC(NC(=O)c1ccccc1)c1ccc(N2CCN(c3ccccn3)CC2)c([N+](=O)[O-])c1 (centres undefined)
  -10.3%	-16.0%

Reformatted: entries from further up
Cc1nc(SCC(=O)NCC2CCCO2)c2c(C)c(C)sc2n1 (centres undefined)
- Vaccinia mCherry: i
- Vaccinia Venus: -13.6%
COc1ccc(N2CCN(C(=O)c3cn(C4CCCCC4)c(=O)c4c3c3ccccc3n4C)CC2)cc1
- Vaccinia mCherry: -26.6%
- Vaccinia Venus: -14.2%

Continued.
Sequence of screens: Vaccinia mCherry	Vaccinia Venus
CCOc1ccccc1Nc1nc2ccccc2c2nncn12
  -8.7%	-9.0%
CCC1SC2=NC(C)=C(C(=O)OCCOC)C(c3ccc(C(=O)OC)cc3)N2C1=O (centres undefined)
  -21.6%	-19.2%
C#CCN(C[C@@H]1[C@@H](OC(=O)NC2CCCC2)[C@@H](OC(=O)NC2CCCC2)Cn2c(=O)ccc(=O)n21)S(=O)(=O)c1ccc(C)cc1
  ?	7.94µM*
CC1(C)SC(C)(C)N(C=O)C1C(=O)O (centres undefined)
  -6.1%	-4.7%
Nc1c(C(=O)NCCN2CCOCC2)c2nc3ccccc3nc2n1-c1cccc(F)c1
  nt	-20.5%
CCOc1ccc(NC(=O)CN(C)C(=O)c2cc(S(=O)(=O)N3CCCCCC3)ccc2OC)cc1OCC
  -4.5%	-23.7%
C[C@]12CS(=O)(=O)C[C@H]1SC(=S)N2c1ccccc1
  -14.3%	-13.7%
Cc1cccc(NC(=O)CSc2nc3c([nH]c4ccccc43)c(=O)n2C)c1C
  -2.1%	-1.2%
O=C1C=C(c2ccc(Br)c3ccccc23)C[C@@H](c2ccc3c(c2)OCO3)C1
  -9.7%	-9.5%
O=C(N/C(=C\c1cccnc1)C(=O)N1CCC(O)CC1)c1ccccc1
  -4.6%	4.4%
O=C(c1ccc(NS(=O)(=O)c2ccc(F)cc2)cc1)N1CCCCC1
  -3.5%	-22.9%
CCOc1ccc(-n2cc(-c3ccccc3)c3c(NCc4ccccc4)ncnc32)cc1
  -12.7%	-6.2%
COC(=O)C(NC(=O)c1ccccc1)C(C)(C)SCc1ccccc1 (centres undefined)
  -9.0%	-3.7%
CN(Cc1ccccn1)C(=O)c1ccc2nc(Cc3cccc(Cl)c3)oc2c1
  -9.3%	-21.8%
O=C(CN(C(=O)c1csnn1)c1ccc(Cl)cc1)NCc1ccc2c(c1)OCO2
  -7.3%	-14.0%
CCOC(=O)N1CCN(C(=O)C[C@@H]2C[C@@]3(C(=O)OC)CC(C)(C)CC=C3N(Cc3ccco3)C2=O)CC1
  -26.4%	-21.0%
O=C1Nc2ccccc2/C1=C/c1ccc([N+](=O)[O-])cc1
  i	-14.9%
CCOC(=O)c1ccc2c(c1)[nH]c(=S)n2CC
  -1.7%	-12.4%
COc1cc(N2CCOCC2)ccc1/C=C1\C(=O)NC(=O)N(Cc2ccc3c(c2)OCO3)C1=O
  -14.3%	15.0%
OCCC1CN(CC2CC2)CCN1Cc1ccc(F)c(F)c1 (centres undefined)
  i	-5.5%
CC[C@@]1(C(=O)OC)N[C@H](CN(C)C(=O)c2ccc(F)cc2)[C@@H]2C(=O)N(C)C(=O)[C@@H]21
  -9.1%	1.2%
Cc1ccc(C)c(Cn2c(C)nc3c(sc(=S)n3-c3ccccc3)c2=O)c1
  -3.2%	-9.7%
O=C(CCNC(=O)c1ccccc1Cl)NN=Cc1ccccc1[N+](=O)[O-]
  -13.4%	-24.1%
COc1ccc(N(C)C(=O)c2cc3c(s2)-c2ccccc2OC3)cc1
  -12.7%	-2.8%
COc1cccc(NS(=O)(=O)c2ccc3[nH]cc(C(=O)NCCc4ccccc4)c(=O)c3c2)c1
  -4.8%	-5.3%
CNc1nc(CC(C)=O)ns1
  nt	-1.2%
COc1ccc(/C=C/c2onc(C)c2S(=O)(=O)N2CCC(C(=O)N3CCC(C)CC3)CC2)cc1
  ?	-25.3%&-11.0%
COc1cccc(N2CCN(C(=O)Cn3ncc4c3-c3ccccc3OC4)CC2)c1
  -27.0%	-14.6%
O=[N+]([O-])c1ccccc1S(=O)(=O)N1CCN(CC2CC=CCC2)CC1 (centres undefined)
  -4.4%	-3.8%
CCOC(=O)N1CCN(Cc2nc3c(c(=O)n(C)c(=O)n3C)n2Cc2ccccc2)CC1
  i	-6.5%

Copied from the list.
`COc1cc(C(=O)Nc2ccc(C(=O)c3ccncc3)cc2)cc(OC)c1OC` @ Vaccinia Venus: -12.9%
`O=[N+]([O-])c1ccccc1S(=O)(=O)N1CCN(CC2CC=CCC2)CC1` (centres undefined) @ Vaccinia Venus: -3.8%
`Nc1c(C(=O)NCCN2CCOCC2)c2nc3ccccc3nc2n1-c1cccc(F)c1` @ Vaccinia Venus: -20.5%

Next records.
SMILES | Vaccinia mCherry | Vaccinia Venus
COC(=O)c1cccc(NC(=O)Cc2coc3cc(OC)ccc23)c1 | ? | -8.7%
CCOC(=O)Cn1cnc2c(nnn2-c2ccc(F)cc2)c1=O | -3.6% | 12.7%
O=C(OCc1ccccc1)N1C=CCC[C@@H]1c1c(Cl)cccc1Br | 11.9% | 13.2%
CS(=O)(=O)c1ccc2nc(NC(=O)CCN3C(=O)c4ccccc4C3=O)sc2c1 | 7.5% | 9.6%
NC(=O)Nc1ccc(C(=O)OCC(=O)Nc2sccc2C(N)=O)cc1 | i | -0.5%
Cc1nc2ccc(N=NC3=C(O)CC(C)(C)CC3=O)cc2s1 | -4.1% | -19.6%
COC(=O)c1cc(CNC(=O)C(C)NS(=O)(=O)c2ccc(C)c(C)c2)ccc1OC (centres undefined) | 15.9% | -0.4%
CC(C)C[C@H](NC(=O)N1CC(=O)Nc2ccccc21)C(=O)N[C@@H](Cc1c[nH]c2ccccc12)C(=O)O | 0.9% | 2.1%
CC(=O)c1ccc(OCC(C)C)c(CN2CCCCC2)c1 | nt | -0.3%
CCOC(=O)c1c2ccccc2[n+]([O-])n1CCO | i | -13.1%
COc1ccc(S(N)(=O)=O)cc1C(=O)NNC(=O)c1cccc(S(=O)(=O)N2CCOCC2)c1 | i | -13.7%
CCCCCCn1c(CN2CCCCC2)nc2c1c(=O)n(C)c(=O)n2C | -21.0% | -6.5%
CCOC(=O)C(C)(C)N(Cc1cccc(C)c1)S(=O)(=O)c1cccc([N+](=O)[O-])c1 | i | -14.3%
CC1(C)Cc2c(cnn2-c2ccccc2)C(NC(=O)C2(C(N)=O)CC2)C1 (centres undefined) | -15.8% | -6.2%
O=C(CNc1cccc([N+](=O)[O-])c1)N/N=C/c1ccc(F)cc1 | -9.8% | -1.0%
COc1ccc2c(c1OC)C(=O)OC2CC(=O)c1ccc(O)cc1 (centres undefined) | i | -7.9%
CC1=CC(=O)[C@@H](O)[C@@H](c2ccccc2Br)N1C | -25.3% | 5.0%
Cc1cccc(NC(=O)C(=O)NCC(c2cccnc2)N2CCc3ccccc3C2)c1C (centres undefined) | -13.8% | -14.5%
CCn1c(SCC(=O)N/N=C(/C)c2ccncc2)nc2ccccc21 | i | -6.4%
COc1ccccc1N=C(C)C1=C(O)COC1=O | -21.2% | -13.8%
CCOc1ccccc1/C=N/n1nnnc1N | -13.3% | -7.1%
CCCC/C(C)=C/[C@@H](NP(=O)(c1ccccc1)c1ccccc1)c1ccccc1 | -11.1% | ?
O=S(=O)(CCN1CCN(c2ccccc2O)CC1)c1cc(Cl)ccc1Cl | ? | ?
Cc1ccc(C)c(C2=NNC(=NCc3ccccc3)SC2)c1 | -8.1% | -14.9%
CCN1CCN(C(=O)c2cccc(OC3CCN(S(C)(=O)=O)CC3)c2)[C@@H](C)C1=O | -14.9% | -2.6%
COc1ccc(Cn2c(C(=O)O)c(CNC3CCCCC3)c3ccc(C)cc32)cc1 | -1.4% | -8.5%
Cc1ccc(Cn2ccn(Cc3ccc(C)cc3)c(=O)c2=O)cc1 | -4.3% | 0.9%
COc1cc(OC)cc(C2=Cc3ccc(OC)cc3C(CC(C)=O)N2c2ccc(C#CC3(O)CCCCC3)cc2)c1 (centres undefined) | 0.1% | -14.1%
COc1ccc(C)c2sc(N3CCN(C(=O)c4ccco4)CC3)nc12 | -25.1% | -21.0%
CCn1c(-c2c[nH]c3ccccc23)n[nH]c1=S | -6.1% | -13.0%
CCN(CC)CCNC(=O)c1ccc(-c2nc(CS(=O)(=O)c3ccc(C)cc3)c(C)o2)cc1 | -3.9% | -3.3%
CC(C)c1ccc(NC(=O)N2CCc3nc(NCc4cccc(Oc5ccccc5)c4)ncc3C2)cc1 | -13.0% | -25.6%
O=C(O)Cc1ccc(S(=O)(=O)N2CCCC2)s1 | -8.5% | -10.0%
O=C(COc1ccc(F)cc1)OCc1cc(=O)n2nc(C3CC3)sc2n1 | -8.7% | -1.3%
CCn1c2ccccc2c2cc(/C=N/NC(=O)c3cccc(C)c3)ccc21 | ? | -29.3%
Cc1ccccc1N=C1NC(=O)/C(=C/c2cccn2-c2cccc(C(=O)O)c2)S1 | i | -1.8%
CCn1nc(C)c(CCN(C)C(=O)Nc2cc(C)cc(C)c2)c1C | -14.5% | -1.4%
CCc1nnc(SC(CC)C(=O)Nc2cc(C)ccc2C)c2cc3occc3n12 (centres undefined) | -7.1% | -12.4%
CCN1/C(=C/C=C2/SC(=Nc3cccc4ncccc34)N(C)C2=O)Sc2ccccc21 | ? | 5.0%
O=C(N/N=C/c1cccc(OC(=O)c2ccc3c(c2)OCO3)c1)c1cncc(Br)c1 | -10.9% | -11.3%
CCCC(C)NC(=O)COC(=O)c1ccccc1SCC(=O)NC(C)CCC (centres undefined) | -4.3% | -5.4%
COC(=O)[C@H](c1ccccc1Cl)N1CCc2sccc2C1 | i | -17.7%
O=[N+]([O-])c1cc(C(F)(F)F)cc([N+](=O)[O-])c1NCCNC(=S)Nc1ccc(Cl)c(Cl)c1 | ? | ?
